# UCH37 DUB inh = inhibitors of human UCH37 deubiquitinase, primary screen, biochemical, Ub-AMC cleavage, fluorescence; 0.33% of 330,000 active; AID 588478, 2011; inhibition, % (concentration not given with the values); Ubiquitin carboxyl-terminal hydrolase isozyme L5 (Homo sapiens), Q9Y5K5; purified proteasome/UCH37;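 active = mean of two replicates above 20%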;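 also: 0% = compound-free wells with enzyme and 100% = wells lacking proteasome; stock transfer was 100 nL into about 20 µL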
# Target sequence (Q9Y5K5 whole entry, looked up): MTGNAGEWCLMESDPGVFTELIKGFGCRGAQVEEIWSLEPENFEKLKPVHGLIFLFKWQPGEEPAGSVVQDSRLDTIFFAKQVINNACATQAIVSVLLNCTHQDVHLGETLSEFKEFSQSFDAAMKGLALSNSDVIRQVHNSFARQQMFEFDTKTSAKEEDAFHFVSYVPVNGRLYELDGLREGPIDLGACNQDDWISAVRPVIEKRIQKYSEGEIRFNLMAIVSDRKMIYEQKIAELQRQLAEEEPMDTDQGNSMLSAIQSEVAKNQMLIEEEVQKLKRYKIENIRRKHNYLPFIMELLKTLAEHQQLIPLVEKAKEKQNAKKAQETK
#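 Reagent: Ub-AMC substrate; assay system: Proteasome-associated human UCH37 deubiquitinase; controls: no-proteasome and no-compound wells; read-out: % inhibition of Ub-AMC cleavage fluorescence; timing: 30 min preincubation with enzyme, 25 min cleavage at room temperature; signal: AMC fluorescence from Ub-AMC cleavage, excitation 355 nm, emission 460 nm; buffer or medium: Tris-HCl pH 7.4 plus ovalbumin, ATP-MgCl2, DTT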
# Beta2AR agonist = beta2AR agonists driving receptor internalization, primary screen, cell-based, FAP fluorogen, flow cytometry; Beta-2 adrenergic receptor (Homo sapiens), P07550; Am2.2-beta2AR cells; reference of the scale not given here; 0.43% of 340,000 active; AID 504454, 2011; response, % (test concentration not listed);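 active = response above a set limit, near 3 SD of response in nonfluorescent compounds, cut at about 42% in these data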;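 also: stock transfer was 100 nL into about 11 µL; a reference agonist was the positive control; negative values mostly stem from fluorescent compounds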
# Target sequence (P07550 whole entry, looked up): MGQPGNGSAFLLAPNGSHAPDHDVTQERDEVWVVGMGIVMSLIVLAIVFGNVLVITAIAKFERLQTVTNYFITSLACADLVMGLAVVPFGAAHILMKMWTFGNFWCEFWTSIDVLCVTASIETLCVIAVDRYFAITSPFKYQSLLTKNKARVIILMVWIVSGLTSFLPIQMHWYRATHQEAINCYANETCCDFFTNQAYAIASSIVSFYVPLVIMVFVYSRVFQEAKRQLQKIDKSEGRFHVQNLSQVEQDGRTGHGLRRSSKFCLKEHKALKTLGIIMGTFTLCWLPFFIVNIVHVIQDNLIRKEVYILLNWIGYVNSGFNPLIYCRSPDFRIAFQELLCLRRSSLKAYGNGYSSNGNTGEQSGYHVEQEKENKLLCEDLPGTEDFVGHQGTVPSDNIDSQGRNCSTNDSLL
# Ecoli growth = E. coli growth inhibition, primary screen, OD600. Escherichia coli growth, 23 h; stronger effect = lower value. 0.21% of 330,000 active. AID 1053175, 2014. OD600 absorbance (no concentration beside the values);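 active = OD600 absorbance below the run mean of sample wells minus 3.6 SD, in any replicate, cut at about 0.56 in these data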;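 also: stock transfer was 300 nL into about 60 µL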
# LANA-H2B inh = blockers of LANA interaction with H2A/H2B – biochemical, FP readout, HTS, primary screen; Protein LANA1 (Human herpesvirus 8 type P (isolate GK18)), Q9QR71; cell-free LANA-H2A/H2B peptide, fluorescence polarization; inhibition, % (concentration not given with the values); 0.6% of 320,000 active; in the data active = inhibition mostly above about 10%, no sharp cut-off; inactive = mostly below about 6.7%;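 also: stock transfer was 7.5 nL into about 10 µL; 0% = median of vehicle wells and 100% = median of positive control wells; one replicate is shown; the record names a cut of 25% in any replicate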
# A1 inh = caspase 3/7 activation in MEF A1-2A-BIM cells, primary screen, A1 inhibitor project, cell-based, luminescence, HTS; Caspase-Glo 3/7 luminescence, 3 h; percent of clofoctol response, vehicle zero; caspase activation, % (no concentration beside the values); 0.066% of 330,000 active;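 active = over half of replicate activation scores above 10%, or exactly half above 10 with the replicate mean above 10; inconclusive = replicate mean below 10 yet half the replicates above 10; inactive = over half of replicates below 10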;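 also: wells of about 30 µL received 50 nL stock; many hits fall short of the cut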
# HNF4A DNA FP = change in binding of human HNF4A to DNA, primary screen, biochemical, fluorescence polarization, FITC-DNA. Hepatocyte nuclear factor 4-alpha (Homo sapiens), P41235. 1 h. activity change, % at 10 µM. 0.3% of 360,000 active. AID 1224865, 2016; in the data active = activity change above about 30%, passing the limit was not always enough;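 also: controls were the assay level and a saturating level of protein; the project sought stronger binding though the title names inhibitors; some compounds called inactive have numbers as strong as hits; positive values seem to mean higher polarization but the record does not say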
# Vif A3G = inhibitors of Vif binding to APOBEC3G peptide, primary screen, biochemical, TR-FRET, GST-Vif 1-94, biotin-A3G peptide, dose response retest (AID 1117319) | Virion infectivity factor (Human immunodeficiency virus type 1 group M subtype B (isolate … | TR-FRET GST-Vif / biotin-A3G peptide binding; higher % means a stronger effect; test concentration not given here; strong numbers were not always called active | inhibition, %; hits with a dose series show IC50 in µM | 0.57% of 260,000 active;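 active = above the screen mean plus three standard deviations and confirmed in dose response; inconclusive = results disagree or hit not tested in dose response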;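 also: Vif residues 1-94 fused to GST binding biotinylated APOBEC3G peptide 110-148; 0% = full assay without inhibitor and 100% = GST in place of GST-Vif; retest series ran down from 100 µM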
# Starred values were filed as active, the others as inactive; ? = inconclusive; nt = no result given. This is a random part of the collection; 2.1% or so of the library scored in one or more.
SMILES,UCH37 DUB inh,Beta2AR agonist,Ecoli growth,LANA-H2B inh,A1 inh,HNF4A DNA FP,Vif A3G
Cc1cc(O)c2c(CN3CCN(Cc4ccccc4)CC3)cc(=O)oc2c1,0.4,-11,0.66,0.1,2.6,3.2,-3%
Cc1sc2nc(CN3CCN(c4ccc(O)cc4)CC3)[nH]c(=O)c2c1C,2.5,-14,0.71,1.7,1.4,9.9,?
COc1ccc(CCNC(=O)C(=O)NCC2OCCN2S(=O)(=O)c2ccc(OC)c(C)c2)cc1 (stereo unspecified),3.4,-3,0.81,1.7,0.1,0.3,nt
CCOc1ccccc1OCCOCCN1CCN(Cc2ccccc2)CC1,5.4,1,0.69,-8.9,0.7,-0.5,-2%
COc1ccc(OC)c(-c2csc(NC(=O)Cc3ccc(F)cc3)n2)c1,-0.5,3,0.67,3.5,-2.4,1.1,nt
Cc1c(C(=O)Nc2ccc(F)c(F)c2)oc2ccc(S(=O)(=O)N3CCCCC3)cc12,1.1,-2,0.67,0.8,-0.2,-2.2,-7%
OC(CCCCN1CCCCC1)c1ccccc1 (stereo unspecified),-0.7,1,0.68,-3.6,0.5,-0.1,-3%
CC(C)(C)c1ccc(-c2n[nH]c(=S)n2C2CCCC2)cc1,1.6,-8,0.69,-2.2,-0.1,0.5,-5%
O=C1CCCC/C=C\C[C@H](CC(=O)N(CCO)Cc2ccccc2)C(=O)N[C@@H](Cc2ccccc2)CO1,-1.8,10,nt,3.3,0.6,-1.6,nt
O=C(c1ccc(Cl)c(Cl)c1)N1CCC(=O)N(C(CO)Cc2ccccc2)CC1 (stereo unspecified),0.5,-4,0.65,4.5,0.6,1.3,nt
Cn1c(N)c(C(=O)/C=C/c2ccccc2)c(=O)[nH]c1=O,2.4,3,0.67,-3.7,-0.9,1.0,-2%
Cc1ccc(S(=O)(=O)N2CCCC(C(=O)N(Cc3cccs3)C3CC3)C2)cc1 (stereo unspecified),4.5,2,0.72,3.7,-0.1,-0.9,-3%
O=C(Nc1ccc(Cl)cc1)OCCn1nnnc1C(c1ccccc1Cl)N1CCOCC1 (stereo unspecified),1.4,-1,0.63,-1.7,0.3,-2.7,20%
Clc1nc(CN2CCOCC2)nc2sc3c(c12)CCC3,2.2,-5,0.66,-2.0,0.1,-1.5,30%
CCOC(=O)C1CCCN(c2c(C(=O)c3ccccc3)cnc3ccccc23)C1 (stereo unspecified),3.0,0,0.7,1.1,0.2,-0.4,8%
CCOC(=O)C1=C(c2ccccc2)NC(N)=NC1c1ccc(OCc2ccc(C(=O)OC)cc2)cc1 (stereo unspecified),0.5,4,0.62,-2.0,0.6,10,-18%
S=C1NCCc2ccc(Cl)cc2C1c1ccccc1Cl (stereo unspecified),6.9,0,0.7,-2.2,0.7,-4.4,-9%
COc1ccccc1NC(=O)Cc1noc(CSc2nnc(N)s2)n1,-0.5,-4,0.69,-1.9,0.2,1.9,3%
O=c1c2cc3c(nc2[nH]c(=S)n1-c1ccccc1)CCCC3,0.1,6,0.71,0.8,0.1,2.6,-53%
c1cnc(Nc2nc(-c3ccc4ccccc4c3)cs2)nc1,2.5,-3,0.67,-4.2,-4.0,-1.4,1%
CC1=C(C(=O)Nc2cccc([N+](=O)[O-])c2)C2(CCC(C)CC2)OC1=O (stereo unspecified),2.3,0,0.67,-2.6,-0.1,-1.2,-3%
CN(CCOC(=O)/C=C/c1ccco1)Cc1ccccc1,1.8,-2,0.69,-2.4,-0.3,-15,?
Cc1ccc2nc(N/C(N)=N/S(=O)(=O)c3ccc([N+](=O)[O-])cc3)nc(C)c2c1,0.9,6,nt,2.7,1.0,-6.7,2%
COc1ccc(C2=CC(=O)C[C@H](c3ccc(OC)c(OC)c3)C2)cn1,2.2,-2,nt,-1.9,-0.2,3.4,nt
COc1ccc(-c2ccc3c(c2)[C@@H]2C[C@H](N(C)C(=O)Nc4ccccc4)[C@H]([C@H](C)O)C(=O)N2CC3)cc1,nt,2,nt,nt,nt,-2.7,-6%
O=C(CCc1nc2ccccc2c(=O)[nH]1)N1CCN(S(=O)(=O)c2ccc(Cl)c(C(F)(F)F)c2)CC1,1.3,8,0.65,-6.0,-0.5,1.3,3%
O=C(NNc1cccc(Cl)c1)c1cccnc1Cl,1.8,9,0.68,-1.2,-0.2,0.2,20%
O=c1o[nH]c(-c2ccccc2)c1C=Nc1ccc(Cl)cc1,2.2,-3,0.71,-3.4,1.7,-1.4,-8%
c1ccc(-n2ncc3cccnc32)cc1,-7.5,3,0.63,-1.7,0.7,1.6,17%
Cc1cc(=O)[nH]c(SC(C(=O)O)c2ccccc2)n1 (stereo unspecified),0.2,-8,0.69,8.3,0.3,-3.6,nt
O=C(CSc1nc2ccccc2s1)NC1CCS(=O)(=O)C1 (stereo unspecified),6.1,-1,0.67,-2.2,0.8,4.1,-4%
Cc1ccc(CS(=O)(=O)CCC(=O)N2CCOCC2)cc1,0.8,-4,0.66,0.1,0.1,-0.7,0%
COc1ccc(/C=C/C(=O)c2ccccc2)c(OC)c1,-0.4,6,0.67,4.0,-3.4,-0.3,2%
Cc1cccc(C)c1NC(=O)CNC(=O)c1cccnc1,2.3,2,0.69,-5.1,-0.8,3.4,-1%
COCCNC(=O)Nc1ccc2nc(-c3cccs3)c(-c3cccs3)nc2c1,-30,23,0.72,9.5,-0.5,13,14%
CCO/N=C(/C)c1c(O)cc(C(C)(C)C)n(-c2ccccc2)c1=O,nt,5,nt,-1.4,0.1,1.6,-3%
COc1ccccc1C(CNC(=S)NCc1ccccc1)N1CCCC1 (stereo unspecified),-1.3,9,0.69,0.5,-0.5,1.5,7%
COc1cccc(N2CC(C)Cn3c2nc2c3c(=O)[nH]c(=O)n2C)c1 (stereo unspecified),2.7,-1,0.67,-1.5,-0.2,-0.9,nt
c1ccc(-n2ncc3c(N4CCC5(CC4)OCCO5)ncnc32)cc1,-0.8,9,0.78,3.7,-2.6,0.7,14%
CS(=O)(=O)N1CC(C(=O)NC2CC2)Oc2ccc(Cl)cc21 (stereo unspecified),-1.4,0,0.68,0.5,0.4,-0.4,0%
Cc1ccccc1C(=O)N1CCCC(CCC(=O)N2CCN(c3ccccn3)CC2)C1 (stereo unspecified),-2.8,0,0.66,-1.8,0.0,0.1,nt
COc1ccc(OCC(=O)NCCCN2CCOCC2)cc1,-0.7,5,0.67,-0.5,-0.2,-2.4,-3%
O=C(Cc1ccc([N+](=O)[O-])cc1)N1N=C(c2ccncc2)CC1(O)C(F)(F)F (stereo unspecified),1.0,2,0.68,0.5,0.0,2.8,-5%
CS(=O)(=O)N(Cc1ccc(Cl)cc1)c1ccc(C(=O)N2CCN(c3ccccc3)CC2)cc1,5.2,5,0.67,2.5,0.2,1.1,-7%
O=C1NC(=Nc2cccnc2)S/C1=C/c1ccc(F)cc1,4.8,2,0.62,2.8,-0.2,-0.9,1%
O=C(NC(=S)Nn1cnc2c(cnn2-c2ccccc2)c1=O)c1ccccc1,2.8,-4,0.63,4.5,-1.5,-0.8,nt
COc1ccc(CSc2ccc(S(=O)(=O)N3CCCCC3)cn2)cc1F,4.0,-2,0.66,nt,nt,0.5,nt
CCCC(=O)N(Cc1cc(=O)[nH]c2ccccc12)c1cccc(C)c1,1.1,17,0.68,0.5,-0.2,3.1,4%
O=S(=O)(NCc1ccco1)c1ccc(Cl)s1,2.8,2,0.71,2.6,0.8,-2.5,-3%
COCCCNC(=S)N/N=C/c1ccc(OC)c(Br)c1,nt,3,nt,5.9,-0.5,-1.8,-4%
O=C(NCCc1ccccc1)C1CCCN1C(=O)NCc1ccccc1 (stereo unspecified),-0.6,0,0.71,0.5,-0.9,1.0,-6%
COC(=O)C1C(=O)C=C(N2CCOCC2)CC1(C)C (stereo unspecified),3.2,1,0.83,0.9,-0.3,-2.5,3%
CCN(CC)S(=O)(=O)c1ccc2c(c1)nc(CCC(=O)Nc1ccccc1Cc1ccccc1)n2CC,2.5,5,0.69,-3.2,0.4,2.0,0%
O=C(NCc1ccccc1)C1=C[C@H](c2ccc3c(c2)OCO3)C[C@H](OCCCCO)O1,5.1,-4,nt,-3.7,1.6,3.1,nt
COc1ccc(CCNC(=O)CSc2nn3c(=O)c(C)nnc3s2)cc1OC,7.6,-11,0.66,3.0,-0.2,2.3,2%
COc1ccc(CCN2CC(C(=O)Nc3cc(S(C)(=O)=O)ccc3Cl)CC2=O)cc1OC (stereo unspecified),0.1,-4,0.67,nt,nt,-6.0,7%
Cc1cc(NC(=O)CN2C(=O)c3ccccc3C2=O)no1,4.8,-1,0.67,4.1,-0.6,2.9,nt
Cc1cc(C)c2nc(-c3cccc(Cl)c3)c(C)c(C(=O)N3CCOCC3)c2c1,3.4,14,0.68,7.2,-0.4,3.0,nt
CC(C)CCN1CCN(Cc2ccc(Oc3ncccn3)cc2)CC1CCO (stereo unspecified),3.3,-13,0.64,-0.2,0.1,-4.7,6%
CC(=O)Nc1nn(C)c2nc(C)cc(C)c12,-9.1,1,0.72,2.3,0.1,2.8,nt

# Further compounds
SMILES,UCH37 DUB inh,Beta2AR agonist,Ecoli growth,LANA-H2B inh,A1 inh,HNF4A DNA FP,Vif A3G
CCc1ccc(OCC(=O)N/N=C2\CC(=O)c3ccccc32)cc1,nt,-8,nt,-1.6,-0.5,-1.7,8%
O=[N+]([O-])c1ccc(N2CCSCC2)cc1,4.1,-1,0.65,-1.1,0.3,0.0,nt
COc1cc(/C=N/Nc2nn3cnnc3c3ccccc23)cc(OC)c1OC,nt,29,nt,1.2,-0.6,-1.3,-7%
CCOc1cc(N2CCOCC2)c(OCC)cc1NC(=O)CN1CCSC1=O,2.5,5,0.7,-3.6,0.6,-3.5,nt
O=C(NN=C1CCCC1)c1[nH]c2ccc(Br)cc2c1-c1ccccc1,5.6,3,0.65,2.3,-0.9,nt,nt
COc1cc(/C=N/Nc2ccccn2)cc(OC)c1O,nt,2,nt,-2.1,-0.1,-1.2,nt
O=C(NC1CCCC1)C(c1ccc(Cl)cc1)N(Cc1ccc(F)cc1)C(=O)CCl (stereo unspecified),1.7,8,0.65,1.4,-0.2,-3.5,nt
COc1ccc(CNC(=O)c2cc(=O)c3cc(C)cc(C)c3o2)cc1,1.6,-6,0.7,1.1,-0.4,1.2,-2%
CCCN(CC1CC1)c1nc(N)c(C#N)c(CC#N)c1C#N,-3.1,8,0.76,-8.3,-0.6,-1.2,4%
CCOc1ccc(S(=O)(=O)N(C)C2CCCCC2)cc1,3.3,-1,0.71,-16,-0.6,2.5,14%
COc1cc(/C=C(\C#N)C(=O)Nc2cc(C(F)(F)F)ccc2Cl)ccc1OCC(=O)Nc1cccc(C(F)(F)F)c1,nt,-9,nt,-2.4,-0.5,21,nt
Cc1onc(-c2ccccc2)c1C(=O)Nc1cccc(C#N)c1,7.5,-11,0.77,2.4,0.9,-2.4,5%
